# RecA intein inh – blocks M. tuberculosis RecA intein splicing. P9WHJ3. cell-free RecA intein splicing, fluorescence. inhibition, %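 (about 9 µM by stock and volumes)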. hit rate 0.75% among 290,000. AID 2221; in the data active = inhibition above about 30%; inconclusive = no clear call, values can overlap the other calls;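 also: 0% = vehicle wells and 100% = reference inhibitor control wells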
# Target sequence (P9WHJ3 whole entry, looked up): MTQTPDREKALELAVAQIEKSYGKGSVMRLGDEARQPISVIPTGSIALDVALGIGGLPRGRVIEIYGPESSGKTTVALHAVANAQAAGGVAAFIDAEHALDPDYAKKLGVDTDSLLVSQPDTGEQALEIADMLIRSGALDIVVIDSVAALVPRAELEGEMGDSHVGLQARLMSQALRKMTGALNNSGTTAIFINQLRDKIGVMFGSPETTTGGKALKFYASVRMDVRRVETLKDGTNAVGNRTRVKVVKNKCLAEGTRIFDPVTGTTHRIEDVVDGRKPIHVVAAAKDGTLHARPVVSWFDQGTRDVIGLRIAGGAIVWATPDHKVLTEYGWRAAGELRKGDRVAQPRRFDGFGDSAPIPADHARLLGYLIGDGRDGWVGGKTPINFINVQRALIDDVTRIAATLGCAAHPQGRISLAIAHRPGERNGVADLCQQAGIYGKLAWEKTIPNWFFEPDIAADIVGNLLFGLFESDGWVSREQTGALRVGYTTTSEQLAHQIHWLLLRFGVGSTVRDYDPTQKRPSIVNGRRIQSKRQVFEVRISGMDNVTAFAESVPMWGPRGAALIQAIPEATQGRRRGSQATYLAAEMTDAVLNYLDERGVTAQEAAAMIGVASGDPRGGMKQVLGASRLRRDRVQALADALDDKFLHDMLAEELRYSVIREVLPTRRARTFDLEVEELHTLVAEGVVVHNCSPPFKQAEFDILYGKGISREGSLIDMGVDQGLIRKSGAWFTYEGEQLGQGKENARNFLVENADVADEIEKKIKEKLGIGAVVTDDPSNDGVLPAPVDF
# YopH PTP inh – YopH (Yersinia) phosphatase inhibition. fluorescence Ex485/Em525. hit rate 0.16% among 140,000. inhibition, %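 (about 10 µM by stock and volumes)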;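 active = inhibition of 50% or more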;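 also: controls were vehicle for no effect and minimum signal wells for full effect; inactives centre near -20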
# Arbovirus inh – antivirals against arbovirus infection. arbovirus infection cell-based antiviral screen. inhibition, % at 10 µM. hit rate 0.37% among 200,000. AID 1251;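 active = inhibition from about 30%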;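 also: bluetongue infection of BSR cells; cell survival read as ATP light after 72 h; 0% = infected wells without compound and 100% = uninfected wells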
# Mtb bLac sens – beta-lactam sensitization of Mtb H37Rv | inhibition, % at 25 µM | hit rate 0.27% among 330,000 | AID 434955 | M. tuberculosis H37Rv growth with meropenem, percent inhibition; hits of this screen are not shown here;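 active = about 74% or more and at least 40 points above the plate without the antibiotic, then above 30% in a dose series; inconclusive = first-round hits that could not be retested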;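 also: growth measured after seven days incubation then overnight dye step; 0% = bacteria only wells and 100% = bacteria with antibiotic; twin plates without the antibiotic show which effects depend on it; some results filed as inactive read as strong as hits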
# Mtb H37Rv – M. tuberculosis H37Rv growth inhibitors, H37Rv strain (AID 1626); hit rate 0.95% among 220,000; inhibition, % at 10 µM; hits with a dose series show IC50 in µM; M. tuberculosis H37Rv growth inhibition; higher % means a stronger effect;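 active = confirmed in a dose series; inconclusive = inhibition above 80% but not taken into the dose series; inactive = below 80% or under 30% at every dose of the series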;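 also: bacteria incubated seven days before Alamar blue readout; 0% = bacteria only wells and 100% = bacteria with antibiotic wells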
# Arbovirus inh repeat – also measured in Arbovirus inh; calls as there; inhibition, %; measured here: 10K subset replicate screen; many hits read low in the repeat;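 first of two repeat runs on a subset; 0% = infected and 100% = uninfected wells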
# * marks the source's active call; other numbers are inactive results; ? = inconclusive; . = no result given. The list is partial; the hit share may differ from the screen's.
SMILES,RecA intein inh,YopH PTP inh,Arbovirus inh,Mtb bLac sens,Mtb H37Rv,others
CC(=O)C1=C(C)NC(=O)NC1c1cc(Br)ccc1OCC#N (stereo not given),2.4,-20,1,5,-7%,
O=C(C(Sc1ccccc1)c1ccccc1)N1CCOCC1 (stereo not given),-1.7,-11,-2,0,1%,
Cc1cc(NC(=O)c2cccc(S(=O)(=O)N3CCCC3)c2)no1,1.3,-5,1,-10,-13%,
CCOc1cc2c(C#N)c(N3CCNCC3)nc(N)c2c(N)n1,3.7,-4,-10,-8,-4%,
O=C(O)CCN1C(=O)c2ccc(NC(=O)c3ccco3)cc2C1=O,-0.8,.,0,-2,1%,
CC1Cc2ccccc2N1C(=O)CSc1ncccn1 (stereo not given),0.2,.,.,0,.,
CC(C)(C)C(=O)Nc1ccc(C(=O)OC2CCCCC2)cc1,.,-17,-14,94,61%,
O=C1CC(=O)NC(SCC(=O)Nc2ccccc2[N+](=O)[O-])=N1,0.0,.,.,4,.,
O=C(NCCCN1CCOCC1)c1cc(Cl)ccc1OCc1ccccc1,0.2,.,.,7,.,
C/C(=N\NC1=NCCN1)c1ccc(N)c([N+](=O)[O-])c1,.,.,.,1,1%,
C=CCNC(=O)CSc1cc([N+](=O)[O-])cc(S(=O)(=O)Cc2ccccc2)c1,1.4,-21,-15,-2,1%,
Cc1ccc(-c2n[nH]c(=O)c3ccccc23)cc1S(N)(=O)=O,0.4,.,.,-3,.,
Cc1cc(C)cc(N(CC(=O)NC2CCCC2)C(=O)c2csnn2)c1,0.6,.,.,7,.,
OC(CNCc1ccco1)COc1ccccc1 (stereo not given),-1.0,2,4,.,-3%,Arbovirus inh repeat=11
CCOC(=O)C1CN(S(=O)(=O)c2cc(OC)ccc2OC)C1,-2.0,.,.,3,.,
COc1ccc(S(=O)(=O)N2CC(C)N(C(=O)N3CCOCC3)C2)cc1 (stereo not given),-0.5,.,.,-5,.,
CCOCCN(C(=O)COC)c1cccc(OC)c1,-0.6,-52,8,-6,7%,
CN(C(=O)c1ccc(OC2CCN(CCc3ccccc3)CC2)cc1)C1CCOC1 (stereo not given),-0.5,.,-7,-10,0%,
OC1COC(OCc2ccccc2)C(O)C1O (stereo not given),-4.8,.,.,-6,5%,
CC(C)(C)C(=O)Nc1ccnc(-c2cccnc2)n1,.,-23,4,.,-6%,
O=C(Cc1ccc(Br)cc1)N1CCN(c2ccccc2O)CC1,1.2,-20,17,21,9%,
CCCNC(=O)c1ccc2c(c1)ncn2-c1cc(C)cc(C)c1,0.8,.,-7,62,-9%,
CC(C)CC(=O)Nc1ccnn1C1CCN(C(=O)c2ccc(Cl)cc2F)CC1,1.9,.,.,2,.,
CCOC(=O)c1c(C)[nH]c(C(=O)OCc2ccc([N+](=O)[O-])cc2)c1C,0.2,.,.,1,.,
CC(=O)Nc1ccccc1NC(=O)C/C(C)=N/NC(=O)C1CCCCC1,2.8,.,.,-1,.,
CN(C(=O)CC1C(=O)NCCN1Cc1ccoc1)C1CCOCC1 (stereo not given),2.3,.,2,-9,-3%,
CC(=O)N1CCCN(Cc2nc(C3(c4ccc(C)cc4)CCCC3)no2)CC1,-1.8,.,-2,-2,1%,
COC(=O)NC1CCS(=O)(=O)C1 (stereo not given),0.1,-15,5,9,-9%,
COc1ccccc1NC(=O)C1=C(C)Nc2nc(CCCO)nn2C1c1ccc2c(c1)OCO2 (stereo not given),0.0,-10,10,-1,9%,
CCOc1ccc(S(=O)(=O)N2CCN(CC)CC2)cc1NC(=O)c1ccccc1F,-2.4,.,.,-3,.,
CCOc1ccccc1C1C(C#N)=C(SCC(=O)OC)NC(=O)C1C(=O)OC (stereo not given),-3.6,-31,-6,-10,-10%,
O=C(CN1CCN(S(=O)(=O)c2ccccc2[N+](=O)[O-])CC1)NC(=O)NCc1ccco1,-2.6,.,6,0,1%,
COc1ccc(CSc2nnnn2-c2ccc(C(=O)O)cc2)cc1,-1.5,.,.,?,.,
COc1ccc(-c2[nH]ncc2CN(C)C(C)c2ccon2)cc1F (stereo not given),3.8,.,-3,-11,2%,
Cc1cccc(-c2nnn(Cc3nnc(NC(=O)c4ccccc4)s3)n2)c1,-5.3,-35,-3,-7,-13%,
Brc1ccc2[nH]c3c(NCc4ccccn4)ncnc3c2c1,3.3,.,.,4,5%,
CC(=O)Nc1nnc(C)s1,-2.2,-52,2,1,0%,Arbovirus inh repeat=-2
CC1CCN(c2c(NCc3ccc(C(=O)NCCc4ccc(Cl)cc4)cc3)c(=O)c2=O)CC1,-0.2,-18,-3,5,.,
CCOC(=O)CNC(=O)CSc1nnc(NC(=O)c2ccc3c(c2)OCO3)s1,0.0,.,.,-9,.,
Cc1ccc(S(=O)(=O)CCC(=O)OCC(=O)NC(=O)c2ccccc2)cc1,-1.2,.,.,4,.,
Cc1nn(C)c(Oc2ccccc2)c1CCNS(=O)(=O)c1ccc(F)cc1,-2.3,-39,-2,?,-5%,
N#C/C(=C/c1cn(-c2ccccc2)nc1-c1cccc(S(=O)(=O)N2CCCC2)c1)C(=O)NCc1ccco1,9.5,-36,-6,1,1%,
Cc1ccccc1OCC(=O)Nc1nc2ccccc2[nH]1,-4.2,.,-2,90,4.8µM*,
Cn1cc(CN2CCN(c3ccc(Cl)cn3)CC2)c(-c2ccccc2F)n1,-1.9,.,8,1,>100µM*,
COC(=O)c1ccccc1NC(=O)CNC(=O)c1ccc(OC)cc1,0.9,.,-2,0,-6%,
O=[N+]([O-])c1ccccc1Oc1cnc2ccccc2n1,2.6,.,-2,-1,.,
CCOC(=O)c1c(NC(=O)Cn2nc(C(F)(F)F)cc2C)sc(C)c1C,-3.7,-9,-13,-4,2%,
Cc1ccccc1CN1CCC(N2CCC(C(=O)NCC3CCCO3)CC2)CC1 (stereo not given),-1.9,.,.,-3,.,
CC1(C)CC(=O)c2cnc(N)nc2C1,1.0,3,3,-6,8%,
O=C(ONc1ccc(N=NC(=O)c2ccccc2O)cc1)c1ccccc1,0.2,-40,-21,?,79%,
O=C(NCc1ccccc1)C1=C[C@@H](c2csc3ccccc23)C[C@@H](OCCCCO)O1,10,.,-4,-5,-1%,
CC(=O)Nc1ccc(NC(=O)CSc2nnc(-c3ccccc3)n2Cc2ccc3c(c2)OCO3)cc1,1.9,-40,12,1,-2%,
O=C1CCC([N+](=O)[O-])C(c2ccc(Br)cc2)N1 (stereo not given),-1.3,-19,-9,1,-3%,
COc1ccc(C(=O)NCCn2cc(SCC(=O)N3CCOCC3)c3ccccc32)cc1,-3.5,-23,10,2,-2%,
CCOC(=O)C1CN(S(=O)(=O)c2ccccc2)C1,-0.7,-33,4,-10,-5%,
N#Cc1nc(COc2ccccc2)oc1N1CCCCCC1,3.4,-23,4,4,9%,
CC(=O)c1cc(Cl)ccc1OC(=O)c1ccco1,22,-3,0,-3,-1%,
Nc1cc(-c2ccccc2)n2c(n1)nc1ccccc12,-11,.,.,-6,-6%,
N#C/C(=C\N1CCOCC1)C(N)=O,1.1,.,.,-11,-6%,
FC(F)(F)c1cccc(N2CCN(Cc3cccnc3)CC2)c1,-2.5,-24,-7,-13,-4%,
# The list goes on.
SMILES,RecA intein inh,YopH PTP inh,Arbovirus inh,Mtb bLac sens,Mtb H37Rv,others
COc1ccc(C(CC(=O)O)NC(=O)C2CCCCC2)cc1 (stereo not given),0.3,-47,4,7,-7%,
Clc1ccc(Nc2ccccc2)nn1,-4.3,.,.,-1,-9%,
CN(C(=O)COC(=O)c1ccc(C(C)(C)C)cc1)C1CCS(=O)(=O)C1 (stereo not given),-1.2,.,.,-4,.,
OC(COc1ccc(F)cc1)CN1CCN(c2ccccc2F)CC1 (stereo not given),-2.6,.,.,17,.,
Cc1cccc(OCCCC(=O)Nc2ccc(S(=O)(=O)N3CCCC3)cc2)c1,1.1,10,7,1,-1%,
CSc1cccc(NC(=O)C(C)C)c1,2.2,.,-3,5,30%,
COc1ccc(N(C(=O)CNC(=O)c2ccco2)C(C(=O)NC2CCCC2)c2ccc(C)o2)cc1 (stereo not given),2.2,.,.,0,.,
Cc1ccc(NC(=O)c2cc(C(C)(C)C)nn2Cc2ccccc2)cc1,9.6,.,.,8,16%,
CCOC(=O)C1=C(O)C(=O)N(Cc2cccnc2)C1c1ccc(OC)cc1 (stereo not given),0.0,.,-1,-3,3%,
O=C(/C=C/c1ccco1)Nc1scc(-c2ccccc2)c1C(=O)O,1.8,.,.,9,2%,
CC(C)CN(C(=O)CN1CCOCC1)c1c(N)n(CC(C)C)c(=O)[nH]c1=O,-0.1,-10,4,-10,2%,
O=C(NCC(c1cccs1)N1CCOCC1)c1ccc(Cl)cc1 (stereo not given),-2.9,.,.,-7,.,
Cn1c(N)c(C(=O)COC(=O)CN2C(=O)c3ccccc3C2=O)c(=O)n(C)c1=O,-2.6,0,4,-12,-10%,
c1ccc(-c2noc(-c3cccc4ccccc34)n2)nc1,-0.6,36,6,91,18%,
Cc1ccc(NC2CCCN(C(=O)CCN3CCCCO3)C2)cc1C (stereo not given),-4.5,.,.,?,.,
COc1ccc(/C(C)=N\NC(=O)C(c2ccncc2)N2CCOCC2)cc1 (stereo not given),-0.8,.,.,1,-10%,
COCC(=O)N1CCC(Oc2ccc(C(=O)NCc3cc(C)no3)cc2)CC1,-2.2,.,.,-11,.,
Oc1c(Br)cc(/C=N/n2c(-c3ccccc3)n[nH]c2=S)c(Br)c1O,26,.,.,4,.,

# An excerpt from above in order of heavy-atom count, lowest first.
SMILES,RecA intein inh,YopH PTP inh,Arbovirus inh,Mtb bLac sens,Mtb H37Rv,others
CSc1cccc(NC(=O)C(C)C)c1,2.2,.,-3,5,30%,
CN(C(=O)COC(=O)c1ccc(C(C)(C)C)cc1)C1CCS(=O)(=O)C1 (stereo not given),-1.2,.,.,-4,.,
Cc1ccc(NC(=O)c2cc(C(C)(C)C)nn2Cc2ccccc2)cc1,9.6,.,.,8,16%,
COc1ccc(/C(C)=N\NC(=O)C(c2ccncc2)N2CCOCC2)cc1 (stereo not given),-0.8,.,.,1,-10%,
Cc1cccc(OCCCC(=O)Nc2ccc(S(=O)(=O)N3CCCC3)cc2)c1,1.1,10,7,1,-1%,

# Reprinted at random: 2 records from the list.
SMILES,RecA intein inh,YopH PTP inh,Arbovirus inh,Mtb bLac sens,Mtb H37Rv,others
Cn1c(N)c(C(=O)COC(=O)CN2C(=O)c3ccccc3C2=O)c(=O)n(C)c1=O,-2.6,0,4,-12,-10%,
CC(C)CN(C(=O)CN1CCOCC1)c1c(N)n(CC(C)C)c(=O)[nH]c1=O,-0.1,-10,4,-10,2%,
